PrP UTR inh – suppresses PrP 5' UTR mRNA reporter expression | cell-based PrP 5' UTR mRNA reporter, plate reader | inhibition, % (concentration not given with the values) | hit rate 0.35% among 340,000 | AID 488862;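 active means every replicate at 50% or more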;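 further: 0 = median of the neutral control wells; tested in H4 reporter cells; numbers are from one replicate; inactives centre near -14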
Sa ugtP lethal – growth inhibition of S. aureus ugtP deletion strain; S. aureus RN4220 ugtP deletion, OD600 growth, 16 h; some inactives read as strong as hits; hit rate 0.54% among 330,000; growth inhibition, % (concentration not given with the values); AID 1259309;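 active means z-score under -3 and OD600 up to 0.15 on both plates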;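 further: plate controls were untreated wells for no effect and antibiotic for full effect; wells of about 80 µL received 100 nL stock; the first replicate is given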
BJeLR lethal – kills HRASV12-expressing BJeLR cells; BJeLR (HRASV12) viability, CellTiter-Glo ATP luminescence, 48 h; reference of the scale not given here; inhibition, % (concentration not given with the values); hit rate 0.17% among 300,000; AID 1554;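 active means replicate mean above 50%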;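 further: 50 nL library stock added to about 25 µL; numbers are from one replicate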
Mtb hypoxia rep – reduces hypoxia-regulated biosensor signal in M. tuberculosis; M. tuberculosis hypoxia-regulated fluorescent reporter, fluorescence; fluorescence inhibition, % (no concentration beside the values); hit rate 0.1% among 300,000; AID 1159583;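 active means 35 to 45% if threefold the growth effect, above 45% if 1.5-fold the growth effect; inactive means the rest, general growth blockers included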;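 further: wells of about 50 µL received 100 nL stock; 0% = vehicle wells and 100% = reference inhibitor wells; whole bacteria with a GFP reporter of the hypoxia response; strong numbers were not always called active; many hits fall short of the cut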
Autofluor counter – flagged as autofluorescent in microsphere protease counterscreen; compound autofluorescence counterscreen, microsphere flow cytometry; hits give high values; hit rate 3.1% among 360,000; fluorescence intensity (no concentration beside the values);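 active means at least 3 SD above the mean of all compounds, about 16000 in these data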;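 further: 100 nL of 1 mM stock went into each well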
RN4220 kill – S. aureus RN4220 growth inhibition; OD600, 16 h; inhibition, % (concentration not given with the values); hit rate 0.33% among 330,000; AID 1259311;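 active means z-score of -3 or lower and OD600 up to 0.18 on both plates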;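 further: plate controls were untreated cells for no effect and reference antibiotic for full effect; stock transfer was 100 nL into about 80 µL; one replicate is shown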
Mtb hypoxia rep growth – second read-out of Mtb hypoxia rep, no call of its own (marks repeat the call); growth inhibition, %; measured here: M. tuberculosis growth (absorbance);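 0% = vehicle and 100% = reference antibiotic; read after six days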
Active calls of the source: *; / = no result given.

SMILES | PrP UTR inh | Sa ugtP lethal | BJeLR lethal | Mtb hypoxia rep | Mtb hypoxia rep growth | Autofluor counter | RN4220 kill
O=C(C1=C(O)C(=O)N(CCN2CCOCC2)C1c1ccc([N+](=O)[O-])cc1)c1cccs1 (configuration not stated) | 1 | 14 | 5 | -7 | -1 | 4197 | 0.1
Cc1cc(NC(=O)CSc2nnc(Cn3c(=O)sc4ccccc43)n2-c2ccccc2C)no1 | 19 | -5 | 6 | / | / | 4440 | 2.4
COC(=O)CCC(=NNc1ccc(Cl)c(Cl)c1)C(=O)OC | / | 31 | / | 3 | 0 | / | 1.3
CC(/C=N/NC(=O)c1ccco1)=C\c1ccccc1 | -63 | / | 5 | / | / | 2255 | /
Cc1ccc(C)n1-c1cc([N+](=O)[O-])ccc1-n1ccnc1 | / | 3 | 9 | 4 | 12 | 3793 | 1.6
CC(C)(C)c1ccc(C(=O)NCC(=O)OCC(=O)Nc2ccc3c(c2)OCCO3)cc1 | -17 | 13 | / | -2 | -3 | 2274 | -1.8
CCOC(=O)CCCCC(=O)c1[nH]c(=O)[nH]c1CN1CCOCC1 | -11 | 3 | 12 | -2 | 1 | 5310 | 3.0
O=C(CSc1nnc(-c2ccncc2)n1CCc1ccccc1)N1CCCC1 | / | -3 | -1 | -2 | 5 | / | 1.8
CCOCc1nnc(NC(C)=O)s1 | -22 | 12 | -1 | / | / | 3516 | 4.3
COc1cccc(OC)c1OC(=O)c1cnccn1 | 0 | 0 | -7 | -7 | -1 | 5509 | 3.2
Cc1cccn2c(=O)nc(SCC(=O)NCc3ccc4c(c3)OCO4)nc12 | -1 | -4 | 0 | 2 | 5 | 6387 | 1.6
COCC(C)NS(=O)(=O)c1ccc(NC(=O)C(Cc2ccccc2)NC(N)=O)cc1 (configuration not stated) | -18 | 0 | -14 | 8 | 17 | 9590 | 2.0
CCc1ccc(C(=O)OCC(=O)NCCNC(=O)COC(=O)c2ccc(CC)cc2)cc1 | 1 | 0 | -3 | -9 | -1 | 5706 | 5.6
Nc1nonc1C(=O)NN=Cc1cc2c(cc1Br)OCO2 | / | -1 | / | 1 | -5 | / | 2.8
CN(C)c1ccc2c(=O)[nH][nH]c(=O)c2c1 | -12 | 14 | -10 | 2 | 14 | 2207 | 4.8
COC(CNC(=O)c1ccc2nc3ccccc3c(=O)n2c1)OC | -8 | 8 | -1 | -1 | 5 | 3600 | 0.4
Nc1c(Cl)cc(C2=NCCn3c2c2ccc([N+](=O)[O-])cc2[n+]3[O-])cc1Cl | -10 | 63 | 0 | 45* | 25* | 3593 | 54
O=C(NNC(=O)c1cccnc1SCc1cccc([N+](=O)[O-])c1)c1cccnc1 | -16 | / | 4 | / | / | 2667 | /
COc1ccc(OC)c(NC(=O)c2cccc(Cn3cc(Br)c([N+](=O)[O-])n3)c2)c1 | 9 | 8 | 1 | 3 | 3 | 1932 | 14
Cc1ccc(-n2[nH]c(C)c(CCC#N)c2=O)cc1 | -24 | -1 | 3 | -1 | -3 | 1968 | -3.5

Among those listed so far, 2 have a Cl atom.
SMILES | PrP UTR inh | Sa ugtP lethal | BJeLR lethal | Mtb hypoxia rep | Mtb hypoxia rep growth | Autofluor counter | RN4220 kill
COC(=O)CCC(=NNc1ccc(Cl)c(Cl)c1)C(=O)OC | / | 31 | / | 3 | 0 | / | 1.3
Nc1c(Cl)cc(C2=NCCn3c2c2ccc([N+](=O)[O-])cc2[n+]3[O-])cc1Cl | -10 | 63 | 0 | 45* | 25* | 3593 | 54

Continuation:
SMILES | PrP UTR inh | Sa ugtP lethal | BJeLR lethal | Mtb hypoxia rep | Mtb hypoxia rep growth | Autofluor counter | RN4220 kill
N#Cc1ccc(C23OCCN2CCn2c3c3ccccc3[n+]2[O-])cc1 (configuration not stated) | -25 | 31 | / | 23 | 7 | 3464 | 40
CCN(CC)CP(=O)(c1ccccc1)c1ccccc1 | -4 | 6 | -6 | / | / | 4690 | 0.9
CC(=O)NC(Cc1ccc(C)cc1)C(=O)NC1CCN(S(=O)(=O)c2ccccc2)CC1 (configuration not stated) | -12 | / | -1 | / | / | 3820 | /
COc1ccc(Cl)cc1S(=O)(=O)N(C)CC(=O)N1CCCC1 | -44 | 0 | 3 | 10 | 2 | 3746 | 9.0
COc1ccccc1OCc1ccc(C(=O)Nc2ccccc2)cc1 | -66 | -4 | / | 4 | 0 | 5580 | 6.6
O=C(Nc1ccc(OC(F)(F)F)cc1)c1ccccc1-n1cnnn1 | -12 | 4 | / | 12 | -7 | / | 7.4
CC1(c2ccccc2Br)NC(=O)N(CC(=O)NC2CCCCC2)C1=O (configuration not stated) | -31 | 5 | / | -2 | -2 | 7746 | 3.3
CCCOc1ccc(-c2nnc(-c3ccncc3)o2)cc1 | -75 | -28 | 8 | -4 | 4 | 5737 | -7.8
CC(CC(=O)N(C)C1CCCCC1)S(=O)(=O)c1ccc2c(c1)NC(=O)CO2 (configuration not stated) | -15 | 1 | 1 | 0 | 1 | 5635 | -2.0
O=c1[nH]c(=O)n(-c2ccccc2)c(O)c1C=NC12CN3CN(CN(C3)C1)C2 | / | 11 | 5 | 11 | -1 | / | 3.6
O=C(NCC1CC1)c1ccc2c3n(nc2c1)-c1ccccc1CO3 | -9 | 7 | 13 | 18 | 7 | 2933 | 5.6
O=S(=O)(Nc1cccnc1)c1cccc(C(F)(F)F)c1 | -17 | 6 | 9 | 12 | 3 | 9706 | 3.5
CC(C)Oc1ccc(C(=O)NCCCNC(=O)c2cccnc2)cc1 | -5 | / | 10 | / | / | 6651 | /
O=C1OCCC1Sc1nc2cc(Cl)ccc2n1Cc1ccccc1 (configuration not stated) | -37 | -2 | -4 | / | / | 2536 | -5.9
Cc1ccc(CNC(=O)C23CN(Cc4ccccc4)CC2C(c2ccc([N+](=O)[O-])cc2)=NO3)o1 (configuration not stated) | -4 | -9 | -9 | 4 | 8 | 4137 | 2.8
Cn1c(SC/C=C/c2ccccc2)nnc1-c1ccco1 | -19 | / | 3 | / | / | 3266 | /
COC(=O)c1cccc(Cn2cc([N+](=O)[O-])cn2)c1 | / | -1 | 2 | 3 | 10 | / | 0.8
CCc1ccc(C(=O)c2ccccc2C(=O)O)s1 | -7 | 2 | -8 | / | / | 3892 | 7.5
CC(=O)c1ccc(S(=O)(=O)N(C)CC(=O)NCC2CCCCC2)cc1 | 2 | 12 | 4 | 0 | -3 | 3109 | 1.8
Cc1ccc2nc(COc3ccc(Cl)cc3)cc(=O)n2c1 | -35 | 8 | 10 | 10 | -9 | 4304 | 8.5

4 entries from above in a different format:
COC(=O)c1cccc(Cn2cc([N+](=O)[O-])cn2)c1
  PrP UTR inh = /; Sa ugtP lethal = -1; BJeLR lethal = 2; Mtb hypoxia rep = 3; Mtb hypoxia rep growth = 10; Autofluor counter = /; RN4220 kill = 0.8

CC1(c2ccccc2Br)NC(=O)N(CC(=O)NC2CCCCC2)C1=O (configuration not stated)
  PrP UTR inh = -31; Sa ugtP lethal = 5; BJeLR lethal = /; Mtb hypoxia rep = -2; Mtb hypoxia rep growth = -2; Autofluor counter = 7746; RN4220 kill = 3.3

COc1ccccc1OCc1ccc(C(=O)Nc2ccccc2)cc1
  PrP UTR inh = -66; Sa ugtP lethal = -4; BJeLR lethal = /; Mtb hypoxia rep = 4; Mtb hypoxia rep growth = 0; Autofluor counter = 5580; RN4220 kill = 6.6

Cc1ccc(CNC(=O)C23CN(Cc4ccccc4)CC2C(c2ccc([N+](=O)[O-])cc2)=NO3)o1 (configuration not stated)
  PrP UTR inh = -4; Sa ugtP lethal = -9; BJeLR lethal = -9; Mtb hypoxia rep = 4; Mtb hypoxia rep growth = 8; Autofluor counter = 4137; RN4220 kill = 2.8

The listing picks up, starting 5 compounds before the break.
SMILES | PrP UTR inh | Sa ugtP lethal | BJeLR lethal | Mtb hypoxia rep | Mtb hypoxia rep growth | Autofluor counter | RN4220 kill
Cn1c(SC/C=C/c2ccccc2)nnc1-c1ccco1 | -19 | / | 3 | / | / | 3266 | /
COC(=O)c1cccc(Cn2cc([N+](=O)[O-])cn2)c1 | / | -1 | 2 | 3 | 10 | / | 0.8
CCc1ccc(C(=O)c2ccccc2C(=O)O)s1 | -7 | 2 | -8 | / | / | 3892 | 7.5
CC(=O)c1ccc(S(=O)(=O)N(C)CC(=O)NCC2CCCCC2)cc1 | 2 | 12 | 4 | 0 | -3 | 3109 | 1.8
Cc1ccc2nc(COc3ccc(Cl)cc3)cc(=O)n2c1 | -35 | 8 | 10 | 10 | -9 | 4304 | 8.5
CSc1nccc(NC(=O)c2cccc(Br)c2)n1 | -7 | -2 | 0 | 1 | -4 | 2902 | 4.0
O=C(NCCCN1CCOCC1)c1cc(-c2ccc(F)cc2)on1 | -12 | 11 | 1 | 4 | 10 | 18525* | 3.5
Cc1cc(C)cc(-n2ccnc2SCC(=O)Nc2ccc3c(c2)OCCO3)c1 | -8 | 16 | 0 | / | / | 3644 | -4.5
CCN(CC)S(=O)(=O)c1cc(NC(=O)c2cc([N+](=O)[O-])ccc2N2CCOCC2)ccc1C | -14 | -8 | -1 | -19 | 3 | 5437 | 1.0
O=C1NC(=S)NC1(c1ccccc1)c1ccccc1 | -7 | -1 | / | 9 | 11 | 3406 | 8.0
Cc1cc(-c2nnc(SCC(=O)NC3CC3)n2C(C)C)cs1 | -14 | 7 | -11 | 10 | 4 | 5242 | 2.3
COc1ccc(CCNC(=O)C2=CCN(S(=O)(=O)c3ccc(F)cc3)CC2)cc1OC | -9 | 11 | 10 | 5 | -3 | 4451 | 3.9
COc1ccc(C(=O)OCC(=O)Nc2ccc(N3CCOCC3)cc2)cc1OC | -17 | 2 | / | -2 | -2 | 8632 | 3.3
CCn1c(NC(=O)c2ccc(COc3ccc(C)cc3[N+](=O)[O-])o2)nc2ccccc21 | 9 | -24 | -3 | 2 | 14 | 22323* | 4.3
CCOC(=O)N1CCN(C(=O)c2cccn3c(=O)c4cc(Cl)ccc4nc23)CC1 | / | 3 | 19 | 3 | 4 | 7547 | 5.8
Cc1cccc2c(=O)c(C(=O)NCCc3ccccc3)c[nH]c12 | -18 | 8 | 3 | 8 | -13 | 4054 | 2.2
O=C(NCC(=O)N1CCCC(C(F)(F)F)C1)c1ccccc1Br (configuration not stated) | -10 | 13 | 4 | 1 | 3 | 4386 | 5.9
CCOC(=O)c1ccc2nc(C)c(C)nc2c1 | -37 | 3 | -7 | 17 | 4 | 4388 | 3.3
Clc1cnc(N/N=C/c2cccs2)c(Cl)c1 | -117 | / | -2 | / | / | 2502 | /
O=C1c2cccc(Sc3ccccc3)c2C(=O)c2c(Sc3ccccc3)cccc21 | -12 | 0 | 9 | -1 | -3 | 3720 | -4.0
CCC(CC)NC(=O)CSc1nnc(-c2ccc(OC)cc2)n1C(C)C | -9 | -3 | 0 | 15 | 3 | 3988 | -0.3
CC(=O)Nc1ccc(S(=O)(=O)NNC(=O)COc2cc(C)ccc2C(C)C)cc1 | 0 | 1 | -5 | / | / | 2773 | 3.3
CC(C)(C)C(=O)O/N=C(\N)c1ccc(Br)cc1 | -48 | 4 | -12 | 5 | -12 | 3834 | 4.2
Cc1ccc[n+](CC(O)Cn2c3ccccc3c3ccccc32)c1 (configuration not stated) | -9 | 0 | 24 | 20 | 10 | 2025 | 0.2
c1ccc(OCCSc2nnnn2C2CCCCC2)cc1 | -45 | 5 | 1 | / | / | 2100 | 6.2
CC(O)[C@H]1CC[C@H]2[C@@H]3CC[C@H]4C[C@@H](O)CC[C@]4(C)[C@H]3C(=O)C[C@]12C (some centres not stated) | -37 | / | 2 | / | / | 3644 | /
O=C(O)C(Cc1ccccc1)NS(=O)(=O)c1ccc2c(c1)OCCO2 (configuration not stated) | -12 | 8 | 4 | / | / | / | -0.5
Cc1noc(C)c1CSc1ncnc2sc3c(c12)CCC(C)C3 (configuration not stated) | / | 36 | 1 | 6 | 7 | / | 6.3
COc1ccc(/C=C/C(=O)c2cc(Cl)ccc2O)c(OC)c1 | -54 | 7 | -7 | 12 | 3 | 6049 | -6.0

Screening data deposited in PubChem BioAssay by several laboratories.
